BJeLR lethal – MLPCN primary cell-based screen for lethality selective to Ras in HRASV12 cells. actives 0.17% (n = 300,000). BJeLR (HRASV12) viability, CellTiter-Glo ATP luminescence, 48 h; reference of the scale not given here. inhibition, % (concentration not given with the values);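 active = replicate mean above 50%; inconclusive = above 50% but judged a plate artefact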;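 note: 50 nL library stock added to about 25 µL; numbers are from one replicate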
PrP 5UTR inh – inhibition of PrP 5' UTR reporter expression | cell-based PrP 5' UTR mRNA reporter, plate reader | actives 0.35% (n = 340,000) | inhibition, % (concentration not given with the values) | AID 488862, 2010;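 active = every replicate at 50% or more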;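 note: 0 = median of the neutral control wells; tested in H4 reporter cells; numbers are from one replicate; inactives centre near -14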
Autofluor counter – flagged as autofluorescent in microsphere protease counterscreen | compound autofluorescence counterscreen, microsphere flow cytometry; hits give high values | fluorescence intensity (test concentration not listed) | actives 3.1% (n = 360,000) | AID 624483;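 active = at least 3 SD above the mean of all compounds, about 16000 in these data; inconclusive = too few beads counted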;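 note: 100 nL of 1 mM stock went into each well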
* marks the source's active call; other numbers are inactive results; u = inconclusive; x = no result given. Some of the compounds tested; the hit share may differ from the screen's.

Results follow in this order: BJeLR lethal | PrP 5UTR inh | Autofluor counter
CCCn1ncc(/C=N/O)c1C
→ -8 | x | 6260
COc1cccc(/C=N/Nc2ccnc(=O)[nH]2)c1O
→ -12 | x | 3003
Cc1ccc(/C=N\NC(=O)Cc2noc3ccccc23)cc1
→ -10 | x | 3343
Cc1oc2cc3oc(=O)c(CC(=O)NCCCC(=O)O)c(C)c3cc2c1C
→ 3 | x | 4100
COC[C@]12CN(C)C3C4[C@H](OC)[C@H]1C3([C@@H](OC)C[C@H]2O)[C@@H]1C[C@@]2(O)[C@H](OC(=O)c3ccccc3)[C@@H]1[C@]4(OC(C)=O)[C@@H](O)[C@@H]2OC
→ -1 | x | 4112
O=C(CCC(=O)N/N=C/c1ccco1)N/N=C/c1ccco1
→ -4 | x | 5733
Cn1ncc(Oc2ccc([N+](=O)[O-])cc2)c(Cl)c1=O
→ 1 | x | 3814
O=C(O)c1ccc(N=Nc2c(O)[nH]c3ccc(Br)cc23)cc1
→ 1 | x | 3679
COc1ccc(CC(=O)N/N=C/C=C/c2ccc3c(c2)OCO3)cc1OC
→ -7 | x | 4545
CC1(C(=O)NNC(=O)c2ccc(=O)oc2)CC1Br (stereo unspecified)
→ 2 | x | 5367
O=C1N/C(=N\S(=O)(=O)Cc2ccccc2)S/C1=C/c1cccc([N+](=O)[O-])c1
→ -2 | x | u
O=C(CNc1ccc2ccccc2c1)N/N=C/c1ccccn1
→ -6 | x | 3607
O=C(N/N=C/c1c[nH]c2ccccc12)c1cccs1
→ 12 | x | 5997
CC12CC[C@H]3[C@@H](CCC4(O)C[C@H](O)CCC34/C=N/NC(=O)c3ccccc3F)C1(O)CCC2C1=CC(=O)OC1 (stereo partly specified)
→ 1 | x | 4099
CC(/C=N/NC(=O)c1ccccn1)=C\c1ccco1
→ 0 | x | 4238
CCOC(=O)/C(C#N)=N/Nc1ccc(S(=O)(=O)Nc2cc(OC)nc(OC)n2)cc1
→ 3 | x | 3763
Cn1c(=O)cc(C(=O)N/N=C/c2ccc(Cl)cc2)[nH]c1=O
→ -1 | x | 5706
Cc1nc2ccc3nc(NC(=O)c4ccco4)sc3c2s1
→ 0 | x | 8038
CCOc1cc(/C=N/NC(=O)C(=O)NCC2CCCO2)ccc1OCC(=O)N1CCOCC1 (stereo unspecified)
→ -4 | x | 5981
CCn1nc(C)c(/C=N/NC(=O)Cn2nnnc2N)c1C
→ 3 | x | 6724
NC(=O)N/N=C(/CCCCCC/C(=N\NC(N)=O)c1ccccc1)c1ccccc1
→ -4 | x | 3755
O=C1CS/C(=N/N=C\c2ccn[nH]2)N1
→ 8 | x | 5953
COc1ccc(/C=N/NC(=O)c2ccn[nH]2)cc1COc1ccc([N+](=O)[O-])c(C)c1
→ -4 | x | 6860
Cc1ccsc1/C=N/Nc1nc(Cl)c(Cl)cc1Cl
→ -2 | x | 11076
COc1ccccc1/C=C/C=N/n1c(-c2ccc(Cl)cc2)n[nH]c1=S
→ -12 | x | 6438
CC(C)(C)OC(=O)N1CCC[C@H]1C(=O)N/N=C/c1cccc2nccnc12
→ -10 | x | 5913
O/N=C1\CCCc2c1nc(-c1ccccc1F)n2O
→ 5 | x | 4527
Cc1ccc(SCC(=O)O/N=C(\N)c2cccc([N+](=O)[O-])c2)cc1
→ -10 | x | 11326
O=S(=O)(/N=C(\Sc1ccccc1)c1ccccc1)c1ccc(Cl)cc1
→ -15 | x | 12569
O=C(N/N=C/c1ccc(O)c(O)c1)C1CC1
→ 0 | x | 6249
Cc1cccc(-c2n[nH]c(=S)n2/N=C/c2cccs2)c1
→ -8 | x | 6161
O=C/C=C/c1c(-c2ccccc2)cc2oc3ccccc3cc1-2
→ 5 | x | 2790
CC(=O)Nc1nn(C)c2nc3ccc(C)cc3cc12
→ 15 | x | 3301
C=CCN1C(=O)/C(=c2\sc3nc(=O)c(Cc4ccccc4)nn3c2=O)c2ccccc21
→ 11 | x | 6228
CC(C)(C)c1ccc2c(c1)OC(C(=O)N/N=C/c1ccc([N+](=O)[O-])o1)CO2 (stereo unspecified)
→ -9 | x | 4408
CCOC(=O)COc1ccccc1/C=N/Nc1nnc2c3ccccc3n(C)c2n1
→ -8 | x | 5201
CCN(CC)C(=N)/C(C#N)=N/Nc1ccccc1
→ -13 | x | 6211
Cc1cc(NC(=O)CNCC(c2ccccc2)N(C)C)c([N+](=O)[O-])cc1C (stereo unspecified)
→ 8 | x | 3264
Cc1nc(N)sc1C(=O)N/N=C/c1ccccc1[N+](=O)[O-]
→ -3 | x | 3343
Cn1cc(/C=N/NC(=O)c2cc3cc(Br)ccc3o2)c2ccccc21
→ -8 | x | 4222
O=C(N/N=C/c1ccc([N+](=O)[O-])cc1)c1cccs1
→ 2 | x | 4334
CC1S/C(=N/N=C/c2ccco2)N(Cc2ccccc2)C1=O (stereo unspecified)
→ 4 | x | 4129
Cc1ccc(-c2cc(C(=O)N/N=C/c3cccnc3)c3ccccc3n2)cc1C
→ -9 | x | 3880
NC(=O)c1c(/N=C/c2cccs2)sc2c1CCCC2
→ 3 | x | 4917
CC(=O)Oc1ccc(/C=C2/C(=O)N(c3ccccc3)N=C2C)cc1
→ -6 | x | 3293
CCOc1ccc(/C=N/NC(=O)Cc2cccs2)cc1
→ 3 | x | 3227
O=C(N/N=C/C=C\c1ccc([N+](=O)[O-])cc1)c1cccnc1
→ 3 | x | 4464
COc1ccc(/C=N/NC(=O)c2cccnc2)cc1CN1CCc2ccccc2C1
→ -6 | x | 6960
COc1ccc(-n2c(SCC(=O)N/N=C(\C)c3cccnc3)nc3ccccc3c2=O)cc1
→ -3 | x | 3705
CCOC(=O)c1c(CC(C)C)csc1/N=C/C1=C(O)CCCC1=O
→ -14 | x | 4599
CC(C)(Oc1ccc(Cl)cc1)C(=O)N/N=C/c1cn[nH]c1-c1ccccc1
→ -1 | x | 12087
C/C(=N\Nc1ccc(C#N)cc1[N+](=O)[O-])c1ccc(C)o1
→ -19 | x | 5233
Cc1nc(N)nc(N/N=C/c2c(F)cccc2Cl)n1
→ -4 | x | 3431
COc1ccc(-c2ccc3c(N)c(C(=O)NC(C)C)sc3n2)cc1OC
→ 4 | x | 3456
CCCCCCCC(=O)N/N=C(/C)c1c(O)cc(C)oc1=O
→ -1 | x | 10981
COc1ccccc1Nc1nc(NCc2ccco2)nc(N)c1[N+](=O)[O-]
→ -3 | x | 4449
COc1ccc(/C=N/NC(=O)c2cccc3ccccc23)c(OC)c1OC
→ -2 | x | 6874
C/C(=N\NC(N)=S)C1(C)CC2(CC(C)(C)OC2=O)C(=O)O1 (stereo unspecified)
→ 1 | x | 4389
Cc1ccc(/C=N/Nc2ccc(F)cc2)s1
→ -3 | x | 3429
NC(=O)N/N=C/c1ccc2cccc(OCc3ccccc3)c2n1
→ -2 | x | 4568

Grouped by structure: the compounds so far containing a Cl atom (7)
Results follow in this order: BJeLR lethal | PrP 5UTR inh | Autofluor counter
Cn1ncc(Oc2ccc([N+](=O)[O-])cc2)c(Cl)c1=O
→ 1 | x | 3814
Cn1c(=O)cc(C(=O)N/N=C/c2ccc(Cl)cc2)[nH]c1=O
→ -1 | x | 5706
Cc1ccsc1/C=N/Nc1nc(Cl)c(Cl)cc1Cl
→ -2 | x | 11076
COc1ccccc1/C=C/C=N/n1c(-c2ccc(Cl)cc2)n[nH]c1=S
→ -12 | x | 6438
O=S(=O)(/N=C(\Sc1ccccc1)c1ccccc1)c1ccc(Cl)cc1
→ -15 | x | 12569
CC(C)(Oc1ccc(Cl)cc1)C(=O)N/N=C/c1cn[nH]c1-c1ccccc1
→ -1 | x | 12087
Cc1nc(N)nc(N/N=C/c2c(F)cccc2Cl)n1
→ -4 | x | 3431

New compounds follow:
Results follow in this order: BJeLR lethal | PrP 5UTR inh | Autofluor counter
O=C(Oc1ccccc1O)c1cccc2ccccc12
→ -2 | x | 4818
O=C(N/N=C/c1cc2c(cc1Br)OCO2)c1ccccn1
→ 9 | x | 5935
S=c1[nH]nc(-c2n[nH]c3c2CCC3)n1/N=C/C=C/c1ccco1
→ -2 | x | 4132
Cc1ccc(Nc2cc(C)c3ccc(O)cc3n2)cc1C
→ 0 | x | 5344
CC1CCCC(C)N1/N=C/c1ccc([N+](=O)[O-])cc1 (stereo unspecified)
→ 2 | x | 3418
CN(C)C(CNC(=O)CCC(=O)c1ccc(Br)cc1)c1ccccc1 (stereo unspecified)
→ -6 | x | 3863
Cc1ccsc1/C=N/N1CCN(c2ccccc2)CC1
→ -6 | x | 8108
COC(=O)c1ccc(/C=N/N2CCN(Cc3ccc(Cl)cc3)CC2)cc1
→ 3 | x | 3744
c1ccc2c(Nc3nc(-c4ccncc4)nc4ccccc34)cccc2c1
→ 5 | x | 3866
O=C1Nc2ccccc2C1(O)c1ccccc1O (stereo unspecified)
→ -9 | x | 3466
S=c1[nH]nc(-c2ccccn2)n1/N=C/c1ccc(Cl)c(Cl)c1
→ 6 | x | 6390
COc1ccc(CNCCc2ccc3c(c2)OCO3)cc1Br
→ 12 | x | 3497
Cc1cccc(N(CC(=O)N/N=C/c2ccc(C(=O)O)cc2)S(=O)(=O)c2ccccc2)c1C
→ 3 | x | 4369
COc1ccc(C2=CC(=O)C[C@H](CN3C(=O)c4ccccc4C3=O)N(C(=O)OC(C)(C)C)O2)cc1
→ x | 16 | 3800
NC1=NC(=O)N2CC12 (stereo unspecified)
→ x | -11 | 3806
C=CC[C@H](CC(=O)OC(C)(C)C)C(=O)OC[C@H]1CCCN1C(=O)[C@H](CC=C)CC(=O)N(CCO)Cc1ccccc1
→ x | -18 | 2713
C/C=C1/C[N+]2(C)CCC34C(=C(C=O)[C@H]1C[C@@H]32)Nc1ccccc14 (stereo partly specified)
→ x | -14 | 4371
COc1ccc(CN2Cc3cnnn3-c3ccccc3C2C#N)cc1 (stereo unspecified)
→ x | -5 | 3794
CCN(CC)c1ccc(/C=N/c2sc3c(c2C#N)C2CCN3CC2)c(O)c1
→ x | -30 | 22519*
O=C1CC[C@@H]2CC(N3CCN(c4ccccc4)CC3)C[C@@H]3CCN1[C@H]23 (stereo partly specified)
→ x | -10 | 4273
Ic1ccccc1CN[C@@H]1C2CCN(CC2)[C@@H]1C(c1ccccc1)c1ccccc1
→ x | 12 | 6283
Cc1ccc(NC(=O)c2ncn(CCCNCC(C)c3ccccc3)n2)cc1C (stereo unspecified)
→ x | -20 | 3420
CCOC(=O)[C@]12Cc3c(cc(OC)c(OC)c3OC)[C@H]1N(Cc1ccccc1)C(=O)c1ccccc12
→ x | -39 | 2749
COc1ccc(Cl)cc1C=CC=NNS(=O)(=O)c1ccc(C)cc1
→ x | -23 | 3651
CCOC(=O)[C@H]1[C@H]2COc3ccccc3[C@@H]2N2C(=O)c3cc(OC)c(OC)cc3NC(=O)[C@@]12C
→ x | -13 | 3814
CC(=O)Nc1cccc(OCCOc2cccc([N+](=O)[O-])c2)c1
→ x | -28 | 2885
CC(C)(C)OC(=O)C[C@H]1C/C=C\C[C@H](CC(=O)NCCO)C(=O)N2CCC[C@@H]2COC1=O
→ x | -4 | 3793
C#CCOCCOCCOCCNc1nc(N2CCN(C(=O)Cn3cc(CC(C)O)nn3)CC2)nc(N2CCN(C(=O)[C@H](CCCCN)n3cc(CCCC)nn3)CC2)n1 (stereo partly specified)
→ x | 1 | 4303
O=C(c1cccc(Cl)c1)N1CCC2CC1c1cc(-c3ccc(F)cc3)ccc12 (stereo unspecified)
→ x | -28 | 3048
COC(=O)C1=C(c2cccc(OCc3ccccc3)c2)C[C@@H]2CC[C@H]1N2C(=O)NCCOc1ccccc1
→ x | -9 | 2905
Cc1ccc(NCc2cccc(B(O)O)c2)cc1
→ x | -33 | 3002
COC(=O)C1=C(c2ccc(F)cc2OCc2ccccc2)C[C@@H]2CC[C@H]1N2C(=O)NCCOc1ccccc1Cl
→ x | 18 | 3054
CC[C@H]1C2C[C@H]3[C@@H]4N(C)c5ccccc5C45C[C@H](C2[C@H]5O)N3[C@@H]1O (stereo partly specified)
→ x | -13 | 5179
O=C1C[C@@H]2c3c(cccc3CN1Cc1ccccc1Cl)C[C@@H](O)[C@H]2O
→ x | -15 | 3489
CCC1(OC(=O)CN(C)C)C(=O)OCc2c1cc1n(c2=O)Cc2cc3c(N)cccc3nc2-1 (stereo unspecified)
→ x | 21 | 3350
CC(CCN1CCC(CN2C(=O)C(=O)NC[C@@H]2Cc2ccccc2)CC1)c1ccccc1 (stereo partly specified)
→ x | -16 | 3709
O=C1CCC/C=C\C[C@@H](CC(=O)N(CCO)Cc2ccccc2)C(=O)N2CCC[C@H]2CO1
→ x | -22 | 4008
CCN1C[C@@H]2[C@@H]3C(=O)N(Cc4ccccc4)C(=O)[C@@H]3[C@](Cc3ccccc3)(C1=O)N2C(=O)c1ccc(Cl)cc1
→ x | -15 | 4686
COc1ccc([C@H]2CC(=O)C=C(c3ccc(F)cc3OCc3ccccc3)C2)cc1
→ x | -12 | 2952
O=[N+]([O-])c1cc(CN2CCCC2)c2cccnc2c1O
→ x | -11 | 2006
COC(=O)N[C@@H]1C[C@H]2[C@@H]3CC[C@H]4C[C@@H](OC)CC[C@]4(C)[C@H]3CC[C@]12C
→ x | 1 | 3954
CC(=O)OC1C=CCC2C(=O)c3cccc(O)c3C(O)C12 (stereo unspecified)
→ x | -24 | 3025
CC(C)(C)OC(=O)C[C@H]1C/C=C\C[C@H](CC(=O)N(CCO)Cc2ccccc2)C(=O)N2CCC[C@H]2COC1=O
→ x | -20 | 3568
COc1cc2sc(-c3ccccc3OC)c(-c3ccc(O)cc3)c2cc1OC
→ x | -15 | 3814
C[C@@H]1CN([C@@H](C)CO)C(=O)c2cccc(NC(=O)C3CCCCC3)c2O[C@@H]1CN(C)C(=O)NC1CCCCC1
→ x | -25 | 4072
C[C@@H]1CN([C@@H](C)CO)C(=O)c2cc(NC(=O)CCN3CCOCC3)ccc2O[C@@H]1CN(C)C(=O)Nc1ccccc1
→ x | -2 | 2920
